Bioassay records from PubChem BioAssay.
VACV E9 pol inh: inhibitors of vaccinia virus processive DNA synthesis (E9 polymerase) | 46,000 compounds, 0.94% hits | normalized absorbance, % (no concentration beside the values) | AID 493162 | in vitro processive DNA synthesis, absorbance read-out; active compounds read low; some inactives read as strong as hits;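 active means replicate mean up to 90% and picked by the depositor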;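 further: 100% = median of the test wells of a plate; 100 nL library stock went into each well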
An asterisk follows results filed as active. A portion of the library; count on the stated rates, not on these rows.

| SMILES | VACV E9 pol inh |
| --- | --- |
| Cc1[nH]nc2c1C1=C(C(=O)CCC1)C(c1ccc(N(C)C)cc1)N2 (stereo not given) | 96 |
| CC1(C)C(=O)C2(C(=O)N3CCOCC3)CCC1C2 (stereo not given) | 102 |
| COc1ccc2c(c1OC)C(=O)N(c1ccc(F)cc1)C2 | 100 |
| COCC(C)NC(=O)c1noc2c1CCc1cc(OC)ccc1-2 (stereo not given) | 100 |
| CCC(C(=O)N1CCN(c2cc(C)ccc2C)CC1)n1sc2ccccc2c1=O (stereo not given) | 100 |
| O=C(CSc1nc2ccccc2[nH]1)N1CCCc2ccccc21 | 95 |
| COc1ccc(CN=C(C)c2c(O)c3ccccc3n(C)c2=O)cc1 | 103 |
| CCCn1c(=O)cc(N)n(-c2ccc(Cl)cc2)c1=O | 106 |
| CC(=O)N(c1ccc2oc(=O)sc2c1)S(=O)(=O)c1ccccc1 | 92 |
| Cc1cc(N)n(CCC#N)n1 | 104 |
| Cc1ccc(CNC(=O)c2ccccc2N)cc1 | 101 |
| CCCCC(=O)Nc1ccc(NCc2ccc(C)s2)cc1 | 99 |
| NC1=NC(=O)/C(=C\c2ccccc2OCc2ccccc2F)S1 | 100 |
| Cc1nnc(C)n1N(C)C | 95 |
| O=C1NC(=O)/C(=C\C=C\c2ccccc2)S1 | 55* |
| O=C(COc1ccccc1)Oc1cc(-c2ccccc2)c2oc(=O)sc2c1 | 91 |
| C=CCOc1cccc(C2c3c(oc4ccc(F)cc4c3=O)C(=O)N2CCOC)c1 (stereo not given) | 82 |
| Cc1nc2ccccc2n1C(=O)CCCC(=O)O | 101 |
| O=C(CSCc1ccccc1)Nc1ccc2c(c1)OCO2 | 105 |
| Cc1cc(NC(c2cccc(Br)c2)c2ccc3cccnc3c2O)no1 (stereo not given) | 100 |
| O=C(NC(NC1CCCCC1)(C(F)(F)F)C(F)(F)F)c1ccccc1 | 98 |
| NC(=O)c1ccsc1NC(=O)c1sc2ccccc2c1Cl | 110 |
| CCC(O)(CC)C12CC3CC(CC(C3)C1)C2 | 100 |
| CCc1cc(C(=O)O)c(NC(=O)c2ccc(Br)cc2)s1 | 96 |

Quoted at random: six entries already listed.
| SMILES | VACV E9 pol inh |
| --- | --- |
| Cc1nc2ccccc2n1C(=O)CCCC(=O)O | 101 |
| CCc1cc(C(=O)O)c(NC(=O)c2ccc(Br)cc2)s1 | 96 |
| O=C1NC(=O)/C(=C\C=C\c2ccccc2)S1 | 55* |
| O=C(NC(NC1CCCCC1)(C(F)(F)F)C(F)(F)F)c1ccccc1 | 98 |
| O=C(COc1ccccc1)Oc1cc(-c2ccccc2)c2oc(=O)sc2c1 | 91 |
| Cc1nnc(C)n1N(C)C | 95 |

Next section
| SMILES | VACV E9 pol inh |
| --- | --- |
| Cc1c(C)n(C(=O)CSc2ccc(Cl)cc2)c2ccccc12 | 98 |
| CCCC(=O)CC(c1ccccc1)C1C(=O)c2ccccc2C1=O (stereo not given) | 90 |
| CSC1=NN(C)c2cnn(C)c(=O)c2S1 | 92 |
| CN(C)CCCNc1nnc(Cc2ccccc2)c2ccccc12 | 103 |
| Cc1cc(-c2onc(C)c2C(N)=O)no1 | 98 |
| CN1CCN(C(=S)SCC(=O)Nc2nc(=O)c3ccccc3s2)CC1 | 100 |
| CCC1(C)Cc2nc3nc(SCC(=O)c4ccccc4)n(Cc4ccccc4)c(=O)c3cc2CO1 (stereo not given) | 100 |
| Cn1ncc2c(=O)n(CC(=O)c3ccccc3)cnc21 | 107 |
| CCNC(=O)c1sc(-c2ccccc2)nc1C | 100 |
| CCc1ccc(NC(=O)COc2ncnc3ccccc23)cc1 | 84 |
| CC12CCC(c3nnc(SCC(=O)Nc4cccc(C(F)(F)F)c4)nc31)C2(C)C (stereo not given) | 100 |
| CC(=O)NC1C(=O)NC(=S)N(c2ccccc2)C1=O (stereo not given) | 100 |
| CN(C)c1ccc(C(=O)OCC(=O)c2cccc(Cl)c2)cc1 | 103 |
| CC(=C(C#N)C#N)c1ccccc1 | 83 |
| Cc1ccc(F)cc1NC(=O)N1CCN(C2c3ccccc3-c3ccccc32)CC1 | 114 |
| O=C(Cc1cccc2ccccc12)NCc1ccc(F)cc1 | 104 |
| COc1cc2c(cc1OC)C(c1ccccc1F)OC(=O)C2 (stereo not given) | 91 |
| C=CCNC(=O)C1CC(=O)N(c2ccc(OCC(=O)Nc3ccc(F)cc3)cc2)C1 (stereo not given) | 83 |
| O/N=C/c1ccnc(SCc2ccc(Cl)cc2)n1 | 98 |
| COC(=O)c1cc(C(=O)OC)cc(-n2c(C)ccc2C)c1 | 100 |
| Cc1cc(Oc2nc3cc(Cl)ccc3s2)c2cc(Cl)ccc2n1 | 88 |
| CCOC(=O)CSc1nnc(CNC(=O)c2cccs2)n1-c1ccccc1 | 102 |
| C[N+](C)(C)Cc1ccccc1 | 109 |
| O=C(Nc1nccs1)C1CC2CCC1C2 (stereo not given) | 106 |
| CCOC(=O)NC(=S)Nc1ccc(F)cc1 | 87 |
| O=c1[nH]c(CN2CCOCC2)nc2sc3c(c12)CCCC3 | 104 |
| CN(CC(=O)N1CCCC1)S(=O)(=O)c1ccc2[nH]c3c(c2c1)CCCC3 | 97 |
| COC(=NC1CCCCC1)C(O)c1c[nH]c2ccccc12 (stereo not given) | 91 |
| COc1ccc(C(=O)Cn2ccnc2C(=O)NCc2ccc(C)cc2)cc1 | 100 |
| CCN(CC)c1ccc(C=NCCN2CCOCC2)cc1 | 101 |
| c1ccc(C(OCCN2CCNCC2)c2ccccc2)cc1 | 100 |
| CC(C)N(C(=O)c1sc2ccccc2c1Cl)C(C)C | 102 |
| CCCn1c(N)nc2ccccc21 | 94 |
| CC(O)(CCO)C12CC3CC(CC(C3)C1)C2 (stereo not given) | 104 |
| Cc1cc(C)c(C#N)c(SCc2cn3c(C)cccc3n2)n1 | 93 |
| O=C(CSc1nc2ccccc2c(=O)n1NC(=O)c1ccccc1)NCc1ccccc1 | 102 |
| Cn1c(CSC2CN(C(c3ccccc3)c3ccccc3)C2)n[nH]c1=S | 104 |
| CCC(Sc1nc(C)cc(=O)[nH]1)C(=O)Nc1ccc(Cl)cn1 (stereo not given) | 100 |
| NC(=O)C1CCN(CC2CC=CCC2)CC1 (stereo not given) | 99 |
| C=CCn1cc(/C=C2/NC(=O)N(c3ccccc3)C2=O)c2ccccc21 | 100 |
| CCOc1ccc(NC(=O)C2CCN(C(=O)c3ccccc3)CC2)cc1 | 100 |
| Cc1cc(C)c2c(n1)nn1c(C)c(CCC(=O)NCCc3ccccc3)c(C)nc21 | 96 |
| COc1ccc(C2CC(=O)N(C)c3ccccc3S2)cc1 (stereo not given) | 97 |
| CC1(C)CC(=O)c2sc(NC(=O)C3CCCCC3)nc2C1 | 92 |
| COc1ccc(C(=O)NCC(=O)N2CCN(c3ccc(F)cc3)CC2)cc1 | 100 |
| CCC(C)NC(=O)c1c[nH]c2ccc(S(=O)(=O)N(C)c3cc(C)ccc3C)cc2c1=O (stereo not given) | 103 |
| CCC1CCCCN1C(=O)CSc1nc2c(c(=O)n1Cc1ccccc1)SC(C)C2 (stereo not given) | 98 |
| COc1ccc(C(=O)N=c2sc3ccccc3n2C)cc1OC | 104 |

The final 8 compounds of the part above lead into the next:
| SMILES | VACV E9 pol inh |
| --- | --- |
| CCOc1ccc(NC(=O)C2CCN(C(=O)c3ccccc3)CC2)cc1 | 100 |
| Cc1cc(C)c2c(n1)nn1c(C)c(CCC(=O)NCCc3ccccc3)c(C)nc21 | 96 |
| COc1ccc(C2CC(=O)N(C)c3ccccc3S2)cc1 (stereo not given) | 97 |
| CC1(C)CC(=O)c2sc(NC(=O)C3CCCCC3)nc2C1 | 92 |
| COc1ccc(C(=O)NCC(=O)N2CCN(c3ccc(F)cc3)CC2)cc1 | 100 |
| CCC(C)NC(=O)c1c[nH]c2ccc(S(=O)(=O)N(C)c3cc(C)ccc3C)cc2c1=O (stereo not given) | 103 |
| CCC1CCCCN1C(=O)CSc1nc2c(c(=O)n1Cc1ccccc1)SC(C)C2 (stereo not given) | 98 |
| COc1ccc(C(=O)N=c2sc3ccccc3n2C)cc1OC | 104 |
| CC1(C)CC(NCc2ccncc2)CC(C)(C)N1 | 102 |
| N#C/C(=C\c1ccc(O)c(O)c1)C(=O)NCc1ccccc1 | 99 |
| Cc1ccc2cc(CCNC(=O)CCCc3ccccc3)c(=O)[nH]c2c1 | 101 |
| CCCC(C)C(=O)Nc1cccc(Br)c1 (stereo not given) | 94 |
| Cc1sc2ncn(CC(=O)OC3CCCCC3)c(=O)c2c1C | 96 |
| CCOC(=O)C1(c2ccccc2)CCN(Cc2cccc(C(=O)O)c2)CC1 | 100 |
| O=C(COc1ccccc1)Nc1nnc(-c2ccc(F)cc2)s1 | 98 |
| CC1CCN(c2nnc(-c3cccs3)c3ccccc23)CC1 | 100 |
| COc1ccccc1-n1c(C)nc2cc(C(=O)O)ccc21 | 106 |
| N#CC(/C=C/c1ccccc1)N1CCOCC1 (stereo not given) | 104 |
| COc1cccc(OC)c1C(=O)N1CCCN(c2nc3ccc(Cl)cc3s2)CC1 | 106 |
| CCOc1cc(/C=C2/SC(=S)NC2=O)cc(Br)c1O | 69* |

In a second layout: entries from further up
> Cc1sc2ncn(CC(=O)OC3CCCCC3)c(=O)c2c1C
  VACV E9 pol inh: 96

> CCOc1cc(/C=C2/SC(=S)NC2=O)cc(Br)c1O
  VACV E9 pol inh: 69*

The list goes on:
| SMILES | VACV E9 pol inh |
| --- | --- |
| CC(C)(C)c1cc(Sc2nc(N3CCOCC3)nc(N3CCOCC3)n2)cc(C(C)(C)C)c1O | 96 |
| O=C(O)C1CCCN(c2c(-c3ccccc3)c3cc(Cl)ccc3[nH]c2=O)C1 (stereo not given) | 83 |
| O=S(=O)(Cc1ccccc1)N1CCn2c(nc3ccccc32)C1 | 98 |
| CCC(=O)N/C=C/n1cnc2cc(C(F)(F)F)ccc21 | 98 |
| O=C(Nc1nc2ccccc2s1)C1CC1 | 99 |
| O=C(COC(=O)c1sc2ccccc2c1Cl)NCc1ccccc1 | 89 |
| CC(=O)Nc1nc(-c2cccs2)cs1 | 100 |
| COc1ccc(N2C(=O)c3c(c4ccccc4n3C)C2c2cccc(OC)c2)cc1 (stereo not given) | 95 |
| COc1ccc(-c2csc(NC(=O)c3ccc(C#N)cc3)n2)cc1 | 98 |
| CC(C)N(C(=O)NC(=O)c1ccc(F)cc1F)C(C)C | 105 |
| C=CCc1ccccc1OCC(O)CN1CCN(Cc2ccc3c(c2)OCO3)CC1 (stereo not given) | 100 |
| O=C(c1ccc(Nc2nc(-c3ccccc3)c3cc(Br)ccc3n2)cc1)N1CCOCC1 | 90 |
| COc1cc2c(NC(C)=O)c(CN(C)C)oc2c(Cl)c1Cl | 100 |
| CC1CCC(C(C)C)C(OCC(O)CN2CCc3ccccc3C2)C1 (stereo not given) | 99 |
| CC12CCCCC1N(CC(N)=O)c1ccccc12 (stereo not given) | 100 |
| CN(C)CCNc1nc(-c2noc(NCCN(C)C)n2)no1 | 102 |
| CCc1nc2cc(CC(=O)O)ccc2o1 | 91 |
| O=c1c2c(-c3cccs3)csc2ncn1-c1ccccc1 | 98 |
| CC1=C(C#N)C(c2ccccc2)C2=C(CC(C)(C)CC2=O)N1 (stereo not given) | 108 |
| Cc1cc2ncc(-c3ccccc3)nc2cc1C | 113 |
| CCOC(=O)c1cc2ccccc2cc1O | 98 |
| Cc1ccc(S(=O)(=O)N2CCCC(C(=O)N3CCCc4ccccc43)C2)cc1 (stereo not given) | 100 |
| CC(=NCc1ccccc1)c1c(C)cc(C)cc1O | 93 |
| COc1ccc2cc3cc(C(=O)NCCN4CCN(c5ccccc5F)CC4)sc3nc2c1 | 102 |
| CC(C)(C)n1ncc2c(=O)n(CC(=O)OCc3ccccc3)cnc21 | 104 |
| CCOC(=O)c1cc2c(c(CSc3ccc(Cl)cc3)c1)OCOC2 | 100 |

4 entries from above, as labelled records.
CCc1nc2cc(CC(=O)O)ccc2o1
  VACV E9 pol inh: 91

O=c1c2c(-c3cccs3)csc2ncn1-c1ccccc1
  VACV E9 pol inh: 98

Cc1ccc(S(=O)(=O)N2CCCC(C(=O)N3CCCc4ccccc43)C2)cc1 (stereo not given)
  VACV E9 pol inh: 100

CC1=C(C#N)C(c2ccccc2)C2=C(CC(C)(C)CC2=O)N1 (stereo not given)
  VACV E9 pol inh: 108
